Compound activity from PubChem.
PD-1 reverse act: activators reversing PD-1 mediated T-cell inhibition; primary human CD4 T cells, PD-L1 beads, CellTiter-Glo 96 h; activation, % (test concentration not listed); 29,000 tested, under 10 active; AID 2316;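 active = replicate mean of 50% or more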;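 also: 0% = median vehicle wells and 100% = positive control; 100 nL library stock added to about 50 µL; numbers are from one replicate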
YB-1 expr inh: YB-1 expression inhibition; delta delta Cp (YB-1 minus CDIP) (no concentration beside the values); U2OS, qRT-PCR YB-1 vs CDIP delta delta Cp, 16 h; hits give high values; zero = DMSO, each unit about twofold; AID 434959; 30,000 tested, 0.37% active;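 active = delta delta Cp rounded down to an integer at or above 3, about 3 SD of DMSO wells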;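 also: higher means less YB-1 transcript or more CDIP transcript relative to DMSO; stock transfer was 100 nL into about 100 µL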
Hedgehog inh: blocks Sonic Hedgehog signaling; Shh-LIGHT2 Gli-luciferase reporter, 30 h; inhibition, % (concentration not given with the values); 22,000 tested, 2.1% active; AID 2313;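 active = replicate mean of 65% or more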;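 also: pathway switched on by Shh-conditioned medium diluted 1 in 25 in low serum; 100 nL library stock added to about 40 µL; 0% = median of neutral wells and 100% = positive control level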
MITF inhib: blocks MITF activity; TRPM1 promoter luciferase, luminescence, 24 h; inhibition, % (test concentration not listed); 37,000 tested, 0.28% active;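 active = most replicates at 85% or more, or half of them and the mean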;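 also: human melanocyte line stably carrying TRPM1 promoter luciferase reporter; 0% = vehicle wells and 100% = a positive control; the first replicate is given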
* = called active by the depositor; / = not tested or not shown. Not all compounds are listed; rates above refer to the full screens.

The line under a structure holds: MITF inhib	PD-1 reverse act	Hedgehog inh	YB-1 expr inh
> Cc1noc(C)c1NC(=O)N(C)C[C@H]1Oc2ccc(NS(=O)(=O)c3ccccc3)cc2C(=O)N([C@@H](C)CO)C[C@H]1C
    -6.3	0.6	-8.2	-0.473
> C[C@@H]1CN([C@@H](C)CO)C(=O)Cc2cc(NC(=O)CCCCCC(=O)Nc3ccccc3N)ccc2O[C@@H]1CN(C)Cc1ccncc1
    -16.4	-0.1	/	-0.216
> Cc1ccc(S(=O)(=O)N(C)C[C@H]2Oc3ccc(NC(=O)CCCCCC(=O)Nc4ccccc4N)cc3CC(=O)N([C@H](C)CO)C[C@H]2C)cc1
    4.0	0.9	/	1.08
> C[C@H]1CN([C@@H](C)CO)C(=O)c2cc(NC(=O)c3ccncc3)ccc2O[C@H]1CN(C)C
    -9.8	0.4	-12.9	-0.397
> COc1ccc(CN(C)C[C@@H]2Oc3ccc(NS(=O)(=O)c4ccc(OC)cc4)cc3CC(=O)N([C@H](C)CO)C[C@@H]2C)cc1
    0.1	2.4	/	-0.468
> C[C@@H]1CN([C@H](C)CO)C(=O)c2cc(NS(C)(=O)=O)ccc2O[C@@H]1CN(C)C(=O)Nc1ccc2c(c1)OCO2
    -1.7	0.2	-26.3	0.0107
> C[C@H]1CN([C@@H](C)CO)C(=O)c2cc(NC(=O)Cc3ccccc3)ccc2O[C@@H]1CN(C)C(=O)NC1CCCCC1
    0.2	-1.3	15.0	0.586
> Cc1cc(C(F)(F)F)nn1CCCNC(=O)c1cccs1
    3.5	-0.1	/	/
> O=Cc1c2[nH]c3ccccc3c2cc2[nH]c3ccccc3c12
    -58.0	/	-33.9	0.177
> CCc1c(C)sc(NC(=O)/C=C/c2ccc(F)cc2)c1C(=O)OC
    5.5	-0.7	-14.5	0.266
> C[C@H]1CN([C@@H](C)CO)C(=O)c2cccc(NC(=O)C3CCOCC3)c2O[C@H]1CN(C)Cc1ccccc1
    -3.3	/	-13.8	-0.357
> Cc1noc(C)c1NC(=O)N(C)C[C@H]1Oc2c(NC(=O)C3CCOCC3)cccc2C(=O)N([C@@H](C)CO)C[C@H]1C
    0.5	-0.6	-45.7	-0.158
> O=c1c(OC2OC(CO)C(O)C(O)C2OC2OC(CO)C(O)C(O)C2OC2OC(CO)C(O)C(O)C2O)c(-c2ccc(O)c(O)c2)oc2cc(O)cc(O)c12 (centres undefined)
    0.0	3.2	-4.4	-0.111
> O=C(Nc1ccc(N2CCCCC2)cc1)c1ccncc1
    15.9	0.8	-62.3	-0.498
> C[C@H]1CN([C@@H](C)CO)C(=O)Cc2cc(NC(=O)Cn3cnnn3)ccc2O[C@@H]1CN(C)S(=O)(=O)c1cn(C)cn1
    5.7	1.0	-17.9	-0.427
> O=C(CSc1nc2ccc(NC(=O)c3ccccc3Cl)cc2s1)Nc1ccc(F)cc1
    -6.2	-1.4	/	/
> COc1ccc(CN(C)C[C@H]2Oc3c(NC(=O)C4CC4)cccc3C(=O)N([C@@H](C)CO)C[C@@H]2C)cc1
    -9.7	/	3.4	-0.754
> C[C@@H]1CCCCO[C@@H](CN(C)Cc2ccc(C(=O)O)cc2)[C@@H](C)CN([C@H](C)CO)C(=O)c2cc(NS(=O)(=O)c3cccs3)ccc2O1
    0.1	1.1	/	-0.193
> COc1ccc(S(=O)(=O)N(C)C[C@@H]2Oc3c(NC(=O)Nc4ccc(F)cc4)cccc3C(=O)N([C@@H](C)CO)C[C@H]2C)cc1
    -8.0	/	9.8	-0.0296
> C[C@H]1CN([C@@H](C)CO)C(=O)Cc2cc(NC(=O)Nc3ccc4c(c3)OCO4)ccc2O[C@@H]1CN(C)S(=O)(=O)c1cccs1
    -13.2	-2.7	5.1	-0.458

The line under a structure holds: MITF inhib	PD-1 reverse act	Hedgehog inh	YB-1 expr inh
> CC12CCC(CC(=O)c3ccccc3)(CC1)CC2
    -37.2	-0.9	/	0.736
> COc1ccc(S(=O)(=O)N(C)C[C@H]2OCCCC[C@@H](C)Oc3ccc(NS(=O)(=O)c4cn(C)cn4)cc3C(=O)N([C@H](C)CO)C[C@@H]2C)cc1
    20.3	/	-9.2	0.133
> COc1ccc(S(=O)(=O)Nc2cccc3c2O[C@@H](CN(C)S(=O)(=O)c2ccc(OC)cc2)[C@@H](C)CN([C@H](C)CO)C3=O)cc1
    4.2	0.9	-5.6	-0.084
> C[C@@H]1CN([C@@H](C)CO)C(=O)c2cccc(NC(=O)c3nc4ccccc4s3)c2O[C@H]1CN(C)S(=O)(=O)c1ccc(F)cc1
    11.4	-3.7	12.2	-0.0417
> C[C@H](CO)N1C[C@H](C)[C@@H](CN(C)C(=O)Nc2ccccc2)Oc2c(NC(=O)NC3CCCCC3)cccc2C1=O
    -13.3	-0.1	5.8	-0.751
> Cc1ccc(F)c(NC(=O)CSc2ncn(-c3ccccc3)n2)c1
    11.3	-2.3	/	/
> O=S(=O)(Nc1ccc(Cl)cn1)c1cccc(S(=O)(=O)c2ccccc2)c1
    -20.2	-0.3	/	/
> Cc1ccc2[nH]c(=O)c(CN(C)S(C)(=O)=O)cc2c1
    -4.8	2.2	/	/
> C[C@@H]1CN([C@@H](C)CO)C(=O)c2cc(NS(=O)(=O)c3ccc(F)cc3)ccc2O[C@H]1CN(C)S(C)(=O)=O
    -6.7	-0.5	-4.2	-0.206
> C[C@H](CO)N1C[C@H](C)[C@H](CN(C)S(=O)(=O)c2ccc(F)cc2)Oc2c(NC(=O)Nc3cccc4ccccc34)cccc2C1=O
    41.3	-2.9	74.7*	-0.193
> C[C@@H]1CN([C@@H](C)CO)C(=O)c2cc(NC(=O)C3CCCCC3)ccc2O[C@@H]1CN(C)C(=O)Nc1cccc2ccccc12
    9.3	-1.3	-11.5	0.16
> Cc1noc(C)c1NC(=O)N(C)C[C@@H]1Oc2c(NC(=O)NC(C)C)cccc2C(=O)N([C@@H](C)CO)C[C@@H]1C
    2.1	2.7	16.2	-0.138
> Cc1noc(C)c1NC(=O)Nc1ccc2c(c1)CC(=O)N([C@@H](C)CO)C[C@@H](C)[C@@H](CN(C)S(=O)(=O)c1c(C)noc1C)O2
    -5.6	0.9	-22.1	-0.143
> C[C@H](CO)N1C[C@H](C)[C@H](CN(C)CC2CCCCC2)Oc2c(NS(=O)(=O)c3ccccc3)cccc2C1=O
    5.0	0.5	-5.7	0.275
> C[C@@H]1CN([C@H](C)CO)C(=O)Cc2cc(NS(=O)(=O)c3ccc(F)cc3)ccc2O[C@@H]1CN(C)S(=O)(=O)c1ccc(Cl)cc1
    -4.9	-1.6	8.5	-0.0065
> COc1ccc(S(=O)(=O)N(C)CC(=O)Nc2cc(C(F)(F)F)ccc2Cl)cc1C
    42.8	1.3	/	/
> COC(=O)C1=COC(O[C@@H]2O[C@H](CO)[C@@H](O)[C@H](O)[C@H]2O)[C@@H]2[C@@H](C)[C@@H](OC(=O)/C=C/c3ccc(O)c(O)c3)[C@@H](O)[C@H]12 (some centres undefined)
    /	/	-8.8	0.46
> COc1ccc(S(=O)(=O)Nc2ccc3c(c2)CC(=O)N([C@H](C)CO)C[C@@H](C)[C@H](CN(C)C(=O)Nc2ccc(F)cc2)O3)cc1
    -16.8	/	-25.0	-0.307
> C[C@H](CO)N1C[C@H](C)[C@@H](CN(C)C(=O)Nc2ccc(C(F)(F)F)cc2)Oc2c(NS(=O)(=O)c3ccccc3)cccc2C1=O
    3.5	-0.6	-14.8	-0.209
> Cc1noc(C)c1S(=O)(=O)Nc1ccc2c(c1)C(=O)N([C@H](C)CO)C[C@H](C)[C@H](CN(C)Cc1ccc(Oc3ccccc3)cc1)O2
    -8.1	-1.2	37.5	-0.0562

Sorted by heavy-atom count (lowest first): some entries from above
The line under a structure holds: MITF inhib	PD-1 reverse act	Hedgehog inh	YB-1 expr inh
> C[C@@H]1CN([C@@H](C)CO)C(=O)c2cccc(NC(=O)c3nc4ccccc4s3)c2O[C@H]1CN(C)S(=O)(=O)c1ccc(F)cc1
    11.4	-3.7	12.2	-0.0417
> C[C@H](CO)N1C[C@H](C)[C@@H](CN(C)C(=O)Nc2ccc(C(F)(F)F)cc2)Oc2c(NS(=O)(=O)c3ccccc3)cccc2C1=O
    3.5	-0.6	-14.8	-0.209
> Cc1noc(C)c1S(=O)(=O)Nc1ccc2c(c1)C(=O)N([C@H](C)CO)C[C@H](C)[C@H](CN(C)Cc1ccc(Oc3ccccc3)cc1)O2
    -8.1	-1.2	37.5	-0.0562

Other compounds.
The line under a structure holds: MITF inhib	PD-1 reverse act	Hedgehog inh	YB-1 expr inh
> C[C@H](CO)N1C[C@H](C)[C@@H](CN(C)S(=O)(=O)c2ccc(Cl)cc2)Oc2c(NS(=O)(=O)c3ccccc3)cccc2C1=O
    -1.0	1.8	6.8	-0.109
> C[C@H]1CN([C@@H](C)CO)C(=O)c2cccc(NC(=O)Nc3ccc(F)cc3)c2O[C@H]1CN(C)Cc1ccc(C(F)(F)F)cc1
    13.7	-4.0	-37.3	2.87
> C[C@H](CO)N1C[C@H](C)[C@H](CN(C)Cc2ccncc2)Oc2ccc(NS(=O)(=O)c3cn(C)cn3)cc2CC1=O
    -1.6	2.5	-18.5	0.109
> COc1ccc(NC(=O)N(C)C[C@H]2Oc3c(NC(=O)Nc4ccc5c(c4)OCO5)cccc3C(=O)N([C@H](C)CO)C[C@@H]2C)cc1
    -29.6	/	-0.9	-0.0916
> C[C@@H]1CN([C@@H](C)CO)C(=O)c2cccc(NC(=O)c3nc4ccccc4s3)c2O[C@H]1CN(C)C(=O)Nc1ccccc1
    -10.0	-2.2	4.4	-0.695
> Cc1ccc(S(=O)(=O)Nc2cccc3c2O[C@@H](CN(C)S(=O)(=O)c2cn(C)cn2)[C@@H](C)CN([C@H](C)CO)C3=O)cc1
    -1.4	1.6	-2.7	-0.0135
> O=C(CC1NC2CCCCC2NC1=O)Nc1ccc(Cl)c(Cl)c1 (centres undefined)
    -3.0	-1.3	/	/
> C[C@H](CO)N1C[C@H](C)[C@H](CN(C)Cc2ccc(C(F)(F)F)cc2)Oc2ccc(NC(=O)Nc3ccc4c(c3)OCO4)cc2CC1=O
    35.2	/	-25.7	-0.186
> CC(=O)N[C@@H](Cc1c[nH]c2ccccc12)C(N)=O
    3.2	/	-24.8	-0.132
> O=C1C[C@@H](c2ccc(O)cc2)Oc2cc(O)c([C@@H]3O[C@H](CO)[C@@H](O)[C@H](O)[C@H]3O)c(O)c21
    /	/	-10.7	0.0325
> Cc1cc(Cl)c(S(=O)(=O)Nc2cccc(Br)c2)cc1OCC(N)=O
    -7.8	1.4	/	/
> C[C@@H]1CN([C@H](C)CO)C(=O)c2cccc(NC(=O)Nc3ccc(F)cc3)c2O[C@@H]1CN(C)C(=O)NC1CCCCC1
    -1.9	0.0	-11.1	-0.167
> Cc1ccc(C(C)C)c(OCC(=O)Nc2ccccc2C#N)c1
    11.7	-3.7	/	/
> C[C@@H]1CN([C@@H](C)CO)C(=O)Cc2cc(NC(=O)Cc3ccccc3)ccc2O[C@@H]1CN(C)C(=O)NC1CCCCC1
    3.3	0.0	-7.8	0.487
> C[C@H](CO)N1C[C@H](C)[C@@H](CN(C)C(=O)Nc2ccc(C(F)(F)F)cc2)Oc2ccc(NC(=O)C3CCCCC3)cc2C1=O
    -2.4	-3.1	-23.9	0.391
> C[C@H]1CN([C@@H](C)CO)C(=O)Cc2cc(NC(=O)NC3CCCCC3)ccc2O[C@H]1CN(C)Cc1ccc(-c2ccccc2)cc1
    25.3	-8.3	36.5	-0.0062
> C[C@H](CO)N1C[C@H](C)[C@@H](CN(C)Cc2ccc(Cl)c(Cl)c2)Oc2c(NC(=O)Nc3cccc4ccccc34)cccc2C1=O
    26.9	-4.5	-31.2	-0.574
> CNC[C@H]1Oc2ccc(NS(=O)(=O)c3ccc(C)cc3)cc2CC(=O)N([C@@H](C)CO)C[C@H]1C
    3.1	2.7	21.5	0.00682
> C[C@@H]1CN([C@@H](C)CO)C(=O)c2cc(NC(=O)Cc3ccccc3)ccc2O[C@@H]1CN(C)S(=O)(=O)c1ccc(F)cc1
    -5.2	/	-20.6	-0.116
> C[C@@H]1CN([C@@H](C)CO)C(=O)c2cccc(NS(C)(=O)=O)c2O[C@H]1CN(C)Cc1ccc(Oc2ccccc2)cc1
    0.2	-1.2	-0.4	0.0137

The line under a structure holds: MITF inhib	PD-1 reverse act	Hedgehog inh	YB-1 expr inh
> Cc1ccc(S(=O)(=O)Nc2ccc3c(c2)C(=O)N([C@H](C)CO)C[C@H](C)[C@H](CN(C)S(C)(=O)=O)O3)cc1
    -16.3	0.3	-26.9	-0.00663
> C/C(=C\CC(C)(C)/C=C/Cc1ccoc1)C(=O)O
    -12.6	0.2	5.2	0.568
> COc1cccc(NC(=O)CSc2nnc(-c3ccc(Cl)cc3)n2C)c1
    8.2	-1.6	/	/
> Cc1ccc(Cl)cc1NC(=O)CN(c1ccccc1F)S(C)(=O)=O
    -9.6	-2.2	/	/
> C[C@@H]1CN([C@H](C)CO)C(=O)c2cc(NS(C)(=O)=O)ccc2O[C@H]1CN(C)Cc1ccc(C(=O)O)cc1
    7.2	1.3	-6.2	0.158
